E coli growth: E. coli growth inhibition, primary screen, OD600. OD600 absorbance (no concentration beside the values). 330,000 tested, 0.21% active. Escherichia coli growth, 23 h; stronger effect = lower value;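 active = OD600 absorbance below the run mean of sample wells minus 3.6 SD, in any replicate, cut at about 0.56 in these data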;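 also: stock transfer was 300 nL into about 60 µL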
UCH37 inh: inhibitors of human UCH37 deubiquitinase, primary screen, biochemical, Ub-AMC cleavage, fluorescence; Ubiquitin carboxyl-terminal hydrolase isozyme L5 (Homo sapiens), Q9Y5K5; purified proteasome/UCH37; 330,000 tested, 0.33% active; AID 588478, 2011; inhibition, % (no concentration beside the values);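 active = mean of two replicates above 20%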;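 also: 0% = compound-free wells with enzyme and 100% = wells lacking proteasome; stock transfer was 100 nL into about 20 µL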
Target sequence (Q9Y5K5 whole entry, looked up): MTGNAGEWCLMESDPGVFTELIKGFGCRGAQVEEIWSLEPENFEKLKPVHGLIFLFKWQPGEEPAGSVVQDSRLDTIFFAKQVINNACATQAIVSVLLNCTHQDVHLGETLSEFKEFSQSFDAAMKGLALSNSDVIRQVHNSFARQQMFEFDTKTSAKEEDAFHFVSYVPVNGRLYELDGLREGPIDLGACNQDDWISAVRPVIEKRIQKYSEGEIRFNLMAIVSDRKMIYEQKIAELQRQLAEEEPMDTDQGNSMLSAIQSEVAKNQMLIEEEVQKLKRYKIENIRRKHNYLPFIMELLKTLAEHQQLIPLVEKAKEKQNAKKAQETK
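Reagent: Ub-AMC substrate; assay system: Proteasome-associated human UCH37 deubiquitinase; controls: no-proteasome and no-compound wells; read-out: % inhibition of Ub-AMC cleavage fluorescence; timing: 30 min preincubation with enzyme, 25 min cleavage at room temperature; signal: AMC fluorescence from Ub-AMC cleavage, excitation 355 nm, emission 460 nm; buffer or medium: Tris-HCl pH 7.4 plus ovalbumin, ATP-MgCl2, DTT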
FGF22 binding: binders of human FGF22 protein, primary screen, FGF22 synaptogenesis inhibitor project, biophysical, thermal shift, single point; AID 651658, 2012; Fibroblast growth factor 22 (Homo sapiens), Q9HCT0; 340,000 tested, 1.5% active; recombinant FGF22 thermal shift, SYPRO orange fluorescence; percent of sucrose octasulfate shift, DMSO zero; calls only at 9.99 µM;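 active = melting point raised past a set limit in the mean and every replicate; inconclusive = no clear call; three in four hits are not shown here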
Target sequence (Q9HCT0 whole entry, looked up): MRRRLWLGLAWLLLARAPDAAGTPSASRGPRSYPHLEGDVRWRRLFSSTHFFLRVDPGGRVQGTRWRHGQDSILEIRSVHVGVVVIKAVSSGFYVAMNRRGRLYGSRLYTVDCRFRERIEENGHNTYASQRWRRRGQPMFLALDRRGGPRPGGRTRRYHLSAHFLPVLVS
RanGTP-Imp inh: inhibitors of RanGTP-importin-beta interaction, primary screen, biochemical, FRET, CFP-Ran, YFP-importin-beta, homogeneous | AID 2216, 2009 | inhibition, % (test concentration not listed) | Ran GTPase (GTP-bound) - importin-beta complex | 300,000 tested, 1.1% active | cell-free CFP-Ran/YFP-importin-beta FRET ratio;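 active = most replicates above 15%; inconclusive = exactly half above 15%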;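 also: 0% = DMSO wells and 100% = Ran loaded with GDP instead of GTP; wells of about 40 µL received 100 nL stock; the first replicate is given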
Vif A3G: inhibitors of Vif binding to APOBEC3G peptide, primary screen, biochemical, TR-FRET, GST-Vif 1-94, biotin-A3G peptide, dose response retest (AID 1117319); Virion infectivity factor (Human immunodeficiency virus type 1 group M subtype B (isolate …; 260,000 tested, 0.57% active; inhibition, %, or IC50 in µM where a hit was titrated; TR-FRET GST-Vif / biotin-A3G peptide binding; higher % means a stronger effect; test concentration not given here; strong numbers were not always called active;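 active = above the screen mean plus three standard deviations and confirmed in dose response; inconclusive = results disagree or hit not tested in dose response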;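 also: Vif residues 1-94 fused to GST binding biotinylated APOBEC3G peptide 110-148; 0% = full assay without inhibitor and 100% = GST in place of GST-Vif; retest series ran down from 100 µM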
HNF4A DNA FP: change in binding of human HNF4A to DNA, primary screen, biochemical, fluorescence polarization, FITC-DNA; 360,000 tested, 0.3% active; activity change, % at 10 µM; AID 1224865, 2016; 1 h; Hepatocyte nuclear factor 4-alpha (Homo sapiens), P41235; in the data active = activity change above about 30%, passing the limit was not always enough;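 also: controls were the assay level and a saturating level of protein; the project sought stronger binding though the title names inhibitors; some compounds called inactive have numbers as strong as hits; positive values seem to mean higher polarization but the record does not say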
AF4-AF9 inh: inhibitors of AF4 peptide binding to AF9, primary screen, biochemical, AlphaScreen, biotin-AF4 peptide, FLAG-AF9, single point; Protein AF-9 (Homo sapiens), P42568; inhibition, % at 10 µM; 350,000 tested, 0.47% active;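 active = every replicate reaching a set inhibition limit, whatever the replicate mean, cut at about 25% in these data; inconclusive = mean inhibition reaches that limit but some replicates miss it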;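 also: 0% = plate neutral control median and 100% = total signal loss; the record names both 10 and 1 µM as test concentration; the first replicate is given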
Target sequence (P42568 whole entry, looked up): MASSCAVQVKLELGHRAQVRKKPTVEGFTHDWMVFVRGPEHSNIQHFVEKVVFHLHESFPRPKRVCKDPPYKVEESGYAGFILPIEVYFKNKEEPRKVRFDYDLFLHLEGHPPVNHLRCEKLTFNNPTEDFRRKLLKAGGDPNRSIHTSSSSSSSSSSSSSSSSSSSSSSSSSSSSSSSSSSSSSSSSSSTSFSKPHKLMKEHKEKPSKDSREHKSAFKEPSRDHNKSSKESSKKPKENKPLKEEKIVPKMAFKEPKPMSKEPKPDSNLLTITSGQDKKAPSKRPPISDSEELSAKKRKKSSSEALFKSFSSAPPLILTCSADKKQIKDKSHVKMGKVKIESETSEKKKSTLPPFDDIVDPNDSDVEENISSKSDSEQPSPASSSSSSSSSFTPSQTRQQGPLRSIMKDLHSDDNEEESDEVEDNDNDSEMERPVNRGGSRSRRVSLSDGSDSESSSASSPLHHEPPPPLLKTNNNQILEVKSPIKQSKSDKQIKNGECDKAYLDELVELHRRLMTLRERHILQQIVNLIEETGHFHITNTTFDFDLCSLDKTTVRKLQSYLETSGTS
Numbers without * were called inactive; i = inactive; ? = inconclusive; . = not tested or not shown. Some of the compounds tested; rates above refer to the full screens.

SMILES	E coli growth	UCH37 inh	FGF22 binding	RanGTP-Imp inh	Vif A3G	HNF4A DNA FP	AF4-AF9 inh
COC(=O)CN=C1OC(=O)N2C(=O)C3=C4[C@@H](C[C@H]5C(=O)N(c6ccccc6)C(=O)[C@H]5[C@H]4[C@@]12Cc1ccccc1)[C@H]1C(=O)N(c2ccccc2)C(=O)[C@H]1[C@H]3C	.	1.4	i	-4.4	.	-1.5	.
Cc1nnc(SC(C)C#N)n1-c1ccccc1 (stereo unspecified)	0.66	0.3	i	-1.0	-9%	3.1	-1.6
CCCCCCCCCS(=O)(=O)Nc1cc(C)ccn1	0.67	-4.3	i	-4.2	-4%	2.2	-5.1
CCCC(O)(CCN1CCOCC1)c1ccc(Cl)cc1 (stereo unspecified)	0.72	2.6	i	-4.0	19%	-1.6	1.6
CCOc1ncccc1C(=O)N1CCCSC1=Nc1ccccc1OC	0.72	0.2	.	-5.2	-6%	-0.5	0.5
Cc1cccc(NC(=S)N(CCN(C)C)Cc2cccs2)c1	0.68	2.7	i	-0.7	25%	2.9	4.8
O=C(O)c1ncn(Cc2ccc(Br)cc2)c1C(=O)O	0.67	1.0	i	1.8	.	-1.9	-3.1
Cc1cccn2cc(-c3ccccc3)nc12	0.65	-7.7	.	-0.6	32%	3.5	.
CCn1c(C)cc(/C=C2/NC(=O)N(CC(=O)Nc3cccc(C)c3)C2=O)c1C	0.68	-1.3	.	-4.2	.	1.3	.
O=C(Cc1ccccc1)NN1C(=O)C2C3C=CC(C3)C2C1=O (stereo unspecified)	0.69	0.8	.	0.8	3%	-1.2	.
COc1ccccc1/C=C\C(=O)NCC(=O)N/N=C(/C)c1cccc([N+](=O)[O-])c1	.	.	i	-1.7	.	-1.2	-0.9
O=C(NC(=S)Nc1ccc(N2CCCCC2)cc1)c1ccc2c(c1)OCCO2	.	.	i	-4.6	.	-0.9	2.5
O=C(CSc1nc2ccccc2n1Cc1ccccc1)N/N=C/c1ccco1	.	.	.	1.1	14%	4.5	.
Cc1ccnc(NC(=O)CS(=O)(=O)c2ccccc2)c1	0.69	-12	i	1.7	.	5.3	-5.1
Cc1nnc(SCC(=O)NCc2ccco2)n1-c1ccccc1	0.68	-0.4	.	3.0	-1%	2.1	.
CCCOC(=O)Nc1sc2c(c1C(N)=O)CCCC2	0.72	2.0	i	-1.8	.	-5.3	1.9
CN(C)/C=N/C1=C(C#N)C(c2cccs2)c2ccc3ccccc3c2O1 (stereo unspecified)	.	.	i	.	.	17	3.8
COC(=O)c1ccccc1S(=O)(=O)N1CCC(C(=O)NCC2CCCO2)CC1 (stereo unspecified)	0.69	1.8	i	-2.9	4%	-3.9	-6.8
CCCNC(=O)COC(=O)c1ccc(OCC(=O)Nc2ccccc2OC)c(OC)c1	0.73	1.9	.	3.6	-1%	1.1	.
COc1ccc(N2CCN(C(CNS(=O)(=O)c3cc(F)ccc3F)c3cccnc3)CC2)cc1 (stereo unspecified)	0.77	3.9	.	0.3	13%	-3.1	.
O=C1CC(c2ccccc2)n2nc(N3C(=O)c4ccccc4C3=O)nc2N1 (stereo unspecified)	0.77	6.4	.	3.6	1%	-0.7	.
O=C1COc2ccc(C(=O)COC(=O)c3cc(S(=O)(=O)N4CCOCC4)ccc3F)cc2N1	0.69	-3.2	i	-0.9	.	7.7	0.2
O=C(Nc1nnc(-c2ccc(F)cc2)o1)c1cccc([N+](=O)[O-])c1	.	.	i	-1.6	5%	-0.9	-3.4
N#Cc1cccc(C(=O)C(=O)N2CCC(Cc3ccccc3)CC2)c1	.	.	i	.	.	-0.3	4.4
Cc1cccc(C)c1OCCCCc1c(C)n[nH]c1C	0.69	4.4	.	2.9	-1%	1.4	.
O=C(CN(CC1CCCO1)C(=O)CNS(=O)(=O)c1ccc(Cl)cc1)NCc1ccco1 (stereo unspecified)	0.71	0.4	i	3.8	-6%	-4.8	-2.9
CC(=O)Nc1ccc(NC(=O)C(NS(=O)(=O)c2cccc3nsnc23)C(C)C)cc1 (stereo unspecified)	0.64	5.4	i	-0.4	2%	-2.4	1.1
Cc1cc(C)c(C(=O)Nc2ccc(C)c(C)c2)c(CC(C)(C)C(=O)O)c1	0.69	5.4	i	5.5	.	-0.5	2.2
Cc1c(C(=O)O)cccc1-c1ccc(/C=N/Nc2ccc(Br)cc2)o1	.	.	.	-5.1	29%	-1.6	.
O=C(O)c1ccc(CSc2nc3ccc(N4C(=O)C5C6C=CC(C6)C5C4=O)cc3s2)cc1 (stereo unspecified)	0.67	0.9	.	-2.3	7%	-4.8	.
O=c1c2ccccc2oc2c1ccc1ccccc12	0.72	-19	.	.	-19%	-0.7	.
Cc1ccc2nc(Nc3ncc4c(n3)CC(C)(C)CC4=O)nc(C)c2c1	0.69	4.9	i	?	-3%	6.5	-2.3
CCOc1ccc(Cl)cc1-c1cc(C(=O)NCc2cccc(C(F)(F)F)c2)[nH]n1	.	.	i	.	.	-0.6	-0.7
O=C(N/N=C/c1ccsc1)c1ccc2ccccc2n1	.	.	i	-4.1	21%	-3.9	2.7
O=C(c1ccc(COc2ccccc2[N+](=O)[O-])o1)N1CCCCCC1	0.72	0.5	.	1.6	4%	1.0	.
CN(CC(=O)Nc1ccc(F)cc1)C(=O)CN1C(=O)c2cccc([N+](=O)[O-])c2C1=O	0.72	1.3	i	.	-1%	2.0	-0.7
CCC1C(c2ccccc2)=CCC(C(=O)O)C1C (stereo unspecified)	0.66	2.0	i	.	-1%	0.1	-0.7
CCn1c(SCC(=O)N2CCCCC2)nc2c(c1=O)SC(C)C2 (stereo unspecified)	0.67	6.1	i	-0.5	-4%	4.4	-4.3
N#Cc1ccc(C(=O)CSc2nnc(-c3ccc(C(F)(F)F)cn3)s2)cc1	0.73	4.8	i	0.4	-2%	6.1	0.0
COC(=O)C(C)Sc1n[nH]c(=S)s1 (stereo unspecified)	0.79	0.6	.	0.3	10%	0.3	.

Sorted by value in RanGTP-Imp inh (largest number first): some entries from above.
| SMILES | RanGTP-Imp inh |
| --- | --- |
| Cc1cc(C)c(C(=O)Nc2ccc(C)c(C)c2)c(CC(C)(C)C(=O)O)c1 | 5.5 |
| O=C(CN(CC1CCCO1)C(=O)CNS(=O)(=O)c1ccc(Cl)cc1)NCc1ccco1 (stereo unspecified) | 3.8 |
| N#Cc1ccc(C(=O)CSc2nnc(-c3ccc(C(F)(F)F)cn3)s2)cc1 | 0.4 |
| O=C(O)c1ccc(CSc2nc3ccc(N4C(=O)C5C6C=CC(C6)C5C4=O)cc3s2)cc1 (stereo unspecified) | -2.3 |
| O=C(N/N=C/c1ccsc1)c1ccc2ccccc2n1 | -4.1 |

Next structures
SMILES	E coli growth	UCH37 inh	FGF22 binding	RanGTP-Imp inh	Vif A3G	HNF4A DNA FP	AF4-AF9 inh
CCCCCCNC(=O)O[C@]12C[C@@H](C(=O)OC)[C@@H](C(=O)OC)C[C@@]1(O)CN(S(=O)(=O)c1ccc(C)cc1)C2	.	.	i	.	4%	0.2	3.2
COc1ccccc1C(=O)Nc1ccnn1C1CCN(Cc2ncc[nH]2)CC1	0.69	-3.4	i	0.5	.	3.5	1.5
Cc1nn(C(C)c2n[nH]c(=S)n2-c2ccc(F)cc2)c(C)c1[N+](=O)[O-] (stereo unspecified)	0.63	0.6	.	4.7	0%	3.6	.
CCc1nc2ccc(C(=O)Nc3cccc(OCC(=O)N(C)C)c3)cn2c1N(C)C(=O)c1ccncc1	.	.	i	.	.	-0.3	-4.5
COC(=O)C1CC(=O)N(c2ccc(OCc3ccccc3Cl)cc2)C1 (stereo unspecified)	0.61	1.3	i	-1.3	.	-6.4	-1.8
COc1cc(OC)c2c(-c3cccc(-c4ccc(F)c(Cl)c4)c3)cc(=O)oc2c1	0.74	-3.3	i	.	-8%	-3.3	1.1
CC(/C=C/c1ccccc1)=N\Nc1nc(-c2ccccc2)cs1	.	.	i	-2.2	13%	0.3	6.6
CCOCCCN(C(=O)c1snc(C(N)=O)c1N)C(C(=O)NCCC(C)C)c1ccc(F)cc1 (stereo unspecified)	0.64	-70	i	1.5	.	1.6	-0.3
O=C1C(Nc2cccc(O)c2)=C(N2CCCCC2)C(=O)c2ccccc21	0.68	31*	.	2.9	25%	3.2	.
CCc1ccc(NC(=O)C2CC=CCC2C(=O)O)cc1 (stereo unspecified)	0.71	5.5	.	1.2	6%	-2.5	.
CC[C@]1(C(=O)OC)[C@H]2C(=O)N(Cc3ccccc3)C(=O)[C@H]2[C@H]2CN(C)C(=NCc3ccccc3)N21	0.72	6.1	.	.	-4%	0.4	.
O=C(Nc1ccc2c(c1)OCCO2)c1ccc(Cl)c([N+](=O)[O-])c1	0.68	4.5	.	1.0	-2%	-2.6	.
C=CCOc1ccccc1CN1CCC(Oc2ccc(C(=O)N3CCCC3)cc2)CC1	0.69	2.6	i	2.6	.	-0.7	4.8
O=C(CCCN1C(=O)c2ccccc2C1=O)NCc1ccc(F)cc1	0.73	4.0	i	3.2	.	-1.3	1.0
COc1cc(-c2nc3cnccn3c2Nc2ccc(C)cc2)ccc1O	0.69	-89	i	2.8	0%	5.3	-0.8
Cc1ccc(F)cc1NC(=O)N1c2ccccc2NC(=O)CC1C (stereo unspecified)	0.64	3.1	i	-4.4	-13%	-3.6	3.2
CCC1(c2ccccc2)NC(=O)N(CC(=O)Nc2cccnc2Cl)C1=O (stereo unspecified)	0.63	-0.3	i	.	4%	-3.7	-0.5
O=C(CSc1nccc(=O)[nH]1)NC1CCCCCCC1	0.7	0.4	i	.	.	-4.8	0.2
COC(=O)c1ccc(/C=C/c2c(-c3ccsc3)sc3ccccc23)cc1	.	-18	i	-4.0	.	2.7	11
Cc1ccccc1-n1c(=O)cc(NCc2ccc3c(c2)OCO3)[nH]c1=O	0.71	3.4	.	5.8	3%	-2.9	.
CC1CCCCN1S(=O)(=O)c1ccc(C(=O)Nc2ccccc2-c2nc3ccccc3s2)cc1 (stereo unspecified)	0.73	-50	i	0.3	6%	3.3	-6.1
CCOC(=O)N1CCN(S(=O)(=O)N2CCCC(C(=O)NCCCN3CCCCC3CC)C2)CC1 (stereo unspecified)	0.66	-3.9	i	-3.8	0%	-17	2.8
CCn1c(CNC(=O)COc2ccc(C(C)C)cc2)nnc1SCC(=O)Nc1ccc(F)cc1	0.69	-2.7	.	1.0	10%	-0.1	.
CCOC(=O)c1c(NC(NC(=O)C(C)C)C(Cl)(Cl)Cl)sc2c1CCC2 (stereo unspecified)	0.68	2.7	.	8.3	.	1.8	.

Quoted at random: three compounds from above, in no set order.
SMILES	E coli growth	UCH37 inh	FGF22 binding	RanGTP-Imp inh	Vif A3G	HNF4A DNA FP	AF4-AF9 inh
Cc1cccc(C)c1OCCCCc1c(C)n[nH]c1C	0.69	4.4	.	2.9	-1%	1.4	.
CCOc1ncccc1C(=O)N1CCCSC1=Nc1ccccc1OC	0.72	0.2	.	-5.2	-6%	-0.5	0.5
CCOc1ccc(Cl)cc1-c1cc(C(=O)NCc2cccc(C(F)(F)F)c2)[nH]n1	.	.	i	.	.	-0.6	-0.7
